TRPML1 blocker – human mucolipin-1 channel inhibition; TRPML1-inducible cells, Ca2+ dye fluorescence, FDSS; hits give low values; inhibition of EC80 agonist-evoked calcium signal; AID 624415; 390,000 tested, 0.02% active; activity change, negative = inhibition, % (no concentration beside the values); in the data active means activity change below about -50%; inconclusive means about -30% to -50%; inactive means above about -30%;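 note: stimulus is agonist 54-4 at its EC80 concentration; % is set by controls: 0 for no effect and ±100 for the full control effect; compound concentration not given in the record; the text of the record puts the active cut at -80%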
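TRPML1-DL cells, Tet-induced overnight (~16 h, 37 °C) at 1,500 cells/well, were loaded with Ca8 no-wash dye plus quencher for 45-90 min at room temperature. Compounds were pinned during FDSS kinetic reading; agonist 54-4 at EC80 (4 uM final) then added.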
D2 potentiator – positive allosteric modulators of human D2 dopamine receptor. AID 624464. 360,000 tested, 0.23% active. DiscoveRx D2 beta-arrestin cells, luminescence, 90 min; 100% = 57 uM dopamine signal. potentiation, % (test concentration not listed). P14416; active = potentiation of 50% or more; inconclusive = 30% to 50%; inactive = 30% or less;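 note: compound concentration not given in the record; tested on top of an EC20 dose of dopamine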
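D2 cells co-treated with compound plus 50 nM dopamine (EC20) for 90 min at 37 deg C to detect potentiation. Beta-arrestin recruitment was read as enzyme-fragment luminescence after 1 h at ambient temperature. Full response was set by 57 uM dopamine.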
Six1-Eya2 blk – Six1/Eya2 interaction inhibition | 360,000 tested, 0.56% active | Q15475+O00167 | activity change, % (concentration not given with the values) | AID 651725 | AlphaScreen GST-Six1/His-Eya2 binding, biochemical; hits give low values; control for the full effect not named in the record; in the data active = activity change below about -65%; inconclusive = about -30% to -65%; inactive = above about -30%; note: % is set by controls: 0 for no effect and ±100 for the full control effect
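Compounds are tested against tagged Six1 and Eya2 proteins bridged by glutathione donor and nickel acceptor beads; after a one-hour incubation at 37 °C without light, AlphaScreen emission is recorded.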
CtBP-E1A blk – CtBP/E1A binding inhibition | activity change, % (no concentration beside the values) | AID 651724 | 340,000 tested, 0.49% active | AlphaScreen GST-E1A/His-CtBP binding, 1536-well; hits give low values; control for the full effect not named in the record; in the data active means activity change below about -65%; inconclusive means about -30% to -65%; inactive means above about -30%; note: % is set by controls: 0 for no effect and ±100 for the full control effect; compound concentration not given in the record
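Protein mix (5X: 125 nM each GST-E1A, His-CtBP) was incubated with pinned compound 2 h at 37 deg C in dark, in 50 mM Tris pH 8.0 buffer with 300 mM NaCl. Glutathione donor and nickel acceptor beads followed; AlphaScreen signal read after 1 h.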
TRPML1 ag – agonists of human TRPML1 channel; AID 624414; activation, % (concentration not given with the values); TRPML1-expressing cells, Ca2+ dye fluorescence, FDSS; host cell line not named in the record; reference of the full effect not given here; 410,000 tested, 0.12% active; in the data active = activation above about 50%; inconclusive = about 30% to 50%; inactive = below about 30%; note: 0% is about no effect; the text of the record puts the active cut at 80%
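Agonist activity was taken from a 110 s kinetic Ca2+ dye read on the FDSS after pinning compounds onto TRPML1-DL cells. The cells were seeded at 1,500/well with Tet inducer, incubated about 16 h, then dye-loaded at room temperature.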
TRPV1 potentiator – enhances activation of the human vanilloid receptor TRPV1. Q8NER1. TRPV1-expressing cells, Fluo-8 calcium influx, capsaicin EC20 potentiation; host cell line not named in the record; control for the full effect not named in the record. potentiation, % at 8.33 µM. 320,000 tested, 0.02% active; active means potentiation above 80%; inconclusive means 30% to 80%; inactive means below 30%; note: 0% is about no effect
Target sequence (Q8NER1 whole entry, looked up): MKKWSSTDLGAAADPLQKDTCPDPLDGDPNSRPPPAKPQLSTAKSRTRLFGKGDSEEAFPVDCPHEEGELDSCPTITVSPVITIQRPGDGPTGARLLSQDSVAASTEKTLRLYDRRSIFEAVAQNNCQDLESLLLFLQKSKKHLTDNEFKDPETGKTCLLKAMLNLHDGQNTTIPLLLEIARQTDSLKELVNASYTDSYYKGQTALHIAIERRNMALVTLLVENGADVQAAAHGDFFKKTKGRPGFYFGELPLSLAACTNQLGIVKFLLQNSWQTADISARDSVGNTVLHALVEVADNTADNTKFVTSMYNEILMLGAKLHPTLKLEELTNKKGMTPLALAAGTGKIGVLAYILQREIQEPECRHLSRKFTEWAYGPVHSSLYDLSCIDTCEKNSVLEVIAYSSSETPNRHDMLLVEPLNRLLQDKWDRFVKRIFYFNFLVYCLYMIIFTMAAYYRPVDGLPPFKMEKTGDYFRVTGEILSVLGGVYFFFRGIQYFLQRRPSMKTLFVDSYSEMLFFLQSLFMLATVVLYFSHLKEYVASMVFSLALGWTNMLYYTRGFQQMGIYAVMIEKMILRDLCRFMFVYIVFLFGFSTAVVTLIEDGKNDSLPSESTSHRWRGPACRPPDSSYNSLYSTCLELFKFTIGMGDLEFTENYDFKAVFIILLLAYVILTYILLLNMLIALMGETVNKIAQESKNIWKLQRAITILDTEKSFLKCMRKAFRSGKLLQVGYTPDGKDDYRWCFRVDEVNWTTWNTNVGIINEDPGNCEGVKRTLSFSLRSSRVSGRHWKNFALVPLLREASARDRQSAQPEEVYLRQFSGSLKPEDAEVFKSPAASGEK
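TRPV1-expressing cells were cultured overnight at 35.5C and loaded with Fluo-8 calcium dye for 40 to 90 min at room temperature. After a 10 s baseline, compound was added and calcium influx was read kinetically for 3 min (ex 480/em 520 nm).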
Active calls of the source: *; ? = inconclusive; / = not tested or not shown; & = joins results of further samples. This is a random part of the collection. Share with any hit: about 0.95%.

SMILES | TRPML1 blocker | D2 potentiator | Six1-Eya2 blk | CtBP-E1A blk | TRPML1 ag | TRPV1 potentiator
CCCCN(C(=O)C1=NN(c2ccccc2)C(=O)CC1)c1c(N)n(CC(C)C)c(=O)[nH]c1=O | 6 | -1 | 6 | -13 | 1.7 | -1
CC1(C)Cc2nc(-c3ccccc3)nc(SCC(O)CO)c2CO1 (stereo not drawn) | -10 | -14 | 1 | / | -0.7 | -13
CCCOc1ccc(NC(=O)C2CC(=O)N(C(C)C)C2)cc1 (stereo not drawn) | -15 | 22 | 6 | 6 | -0.5 | 6
CCOc1ccccc1NC(=O)C1C2C=CC(C2)C1C(=O)O (stereo not drawn) | 1 | -10 | 0 | 1 | -0.2 | -7
Cc1cc2nc(-c3ccco3)c(Cc3cccc(F)c3)n2c(C)c1Br | / | -2 | ? | -1 | -0.7 | /
Cc1sc2ncnc(N3CCC(C(=O)N4CC(C)SC4=Nc4ccc(Cl)cc4)CC3)c2c1C (stereo not drawn) | 3 | 2 | 1 | / | -0.6 | /
CCCn1c(SCC(=O)Nc2nc3ccccc3s2)nc2c1c(=O)n(C)c(=O)n2C | -4 | -8 | 9 | 0 | -1.0 | 6
Cc1cccc(C(=O)OCC(=O)NCCCc2ccccc2)c1 | -6 | -6 | -3 | / | 3.3 | -21
Cc1cccc2nnc(-c3ccccc3)n12 | -1 | -15 | 2 | 4 | 0.4 | /
Cc1cc(C(=O)N/N=C/c2ccc(-c3ccc([N+](=O)[O-])cc3C)o2)n[nH]1 | 5 | 3 | -5 | -13 | 1.0 | 0
O=c1cnnc(N/N=C/C2CC=CCC2)[nH]1 (stereo not drawn) | 23 | -1 | -30 | -4 | 0.7 | -4
Cc1csc(NC(=O)CSc2ccc([N+](=O)[O-])cn2)n1 | -1 | 23 | -5 | 3 | -0.3 | 2
Cc1cccc(NC(=O)CCN2C(=O)c3cccc([N+](=O)[O-])c3C2=O)c1 | 4 | 0 | 5 | 1 | -0.7 | -7
OCCC1CN(C2CCSCC2)CCN1C1CCCC1 (stereo not drawn) | -11 | -7 | -1 | 1 | 0.9 | 25
O=C(NC1CCCCC1)N1CCN(Cc2ccco2)CC1 | 2 | -6 | -1 | -2 | -0.5 | 1
CNC(=O)N1c2ccccc2NC(=O)CC1C (stereo not drawn) | 7 | -6 | -2 | 9 | -0.2 | 2
O=C(Cn1c(=O)oc2ccccc21)N1CCN(S(=O)(=O)c2ccccc2)CC1 | 2 | -1 | 4 | 15 | -0.2 | 2
CC(=O)c1c(C)cc(C)c(CSc2ccccn2)c1C | 3 | -12 | -4 | 14 | 1.4 | 14
O=C(CCSc1nnc(-c2ccncc2)o1)Nc1cccc(Cl)c1 | -9 | -4 | 11 | -10 | -1.0 | 7
COc1ccc(OCC(=O)Nc2ccc3c(c2)nc(CCN2CCCC2)n3C)cc1 | -2 | -28 | -1 | 1 | -0.5 | 18
CC(=O)OCC1(C)CN(c2ccccc2)N(C(=O)c2ccc(C(C)(C)C)cc2)C1=O (stereo not drawn) | 3 | -23 | 12 | / | 1.2 | -4
Cc1cc(C)cc(NC(=O)CCNC(=O)c2ccc([N+](=O)[O-])cc2)c1 | 3 | -31 | 8 | 2 | 1.3 | 13
CN1CCN(C(=O)CCCN2C(=O)/C(=C/c3ccc(Cl)cc3)SC2=S)CC1 | 2 | -3 | -7 | -13 | 0.2 | 5
COC(=O)c1[nH]c2ccccc2c1NC(=O)CN1CCN(C(=O)c2ccco2)CC1 | -3 | 9 | -14 | -3 | -0.2 | 5

Seven entries from above, sorted by count of non-hydrogen atoms, smallest number first.
SMILES | TRPML1 blocker | D2 potentiator | Six1-Eya2 blk | CtBP-E1A blk | TRPML1 ag | TRPV1 potentiator
CNC(=O)N1c2ccccc2NC(=O)CC1C (stereo not drawn) | 7 | -6 | -2 | 9 | -0.2 | 2
CC(=O)c1c(C)cc(C)c(CSc2ccccn2)c1C | 3 | -12 | -4 | 14 | 1.4 | 14
O=C(NC1CCCCC1)N1CCN(Cc2ccco2)CC1 | 2 | -6 | -1 | -2 | -0.5 | 1
Cc1cc(C)cc(NC(=O)CCNC(=O)c2ccc([N+](=O)[O-])cc2)c1 | 3 | -31 | 8 | 2 | 1.3 | 13
CN1CCN(C(=O)CCCN2C(=O)/C(=C/c3ccc(Cl)cc3)SC2=S)CC1 | 2 | -3 | -7 | -13 | 0.2 | 5
O=C(Cn1c(=O)oc2ccccc21)N1CCN(S(=O)(=O)c2ccccc2)CC1 | 2 | -1 | 4 | 15 | -0.2 | 2
COc1ccc(OCC(=O)Nc2ccc3c(c2)nc(CCN2CCCC2)n3C)cc1 | -2 | -28 | -1 | 1 | -0.5 | 18

Next section.
SMILES | TRPML1 blocker | D2 potentiator | Six1-Eya2 blk | CtBP-E1A blk | TRPML1 ag | TRPV1 potentiator
OC(COc1ccccc1)CN1CCN(c2cccc(Cl)c2)CC1 (stereo not drawn) | 38 | -31 | -4 | -11 | 0.9 | /
CCOC(=O)c1c([N+](=O)[O-])c(C)[nH]c(=O)c1C#N | -17 | 0 | 11 | 0 | 0.5 | 5
COc1ccc(CCNC(=O)C2CCN(S(=O)(=O)c3ccc(SC)cc3)CC2)cc1 | 4 | -1 | -5 | 2 | 0.4 | -2
COc1ccc(/C=N/N2CCN(C3c4ccccc4-c4ccccc43)CC2)cc1OC | -19 | -9 | -11 | -15 | 0.9 | 8
O=C1CC[C@@H](O)CCN1CC[C@H](Sc1ccc(Br)cc1)c1ccccc1 | -13 | 0 | -3 | 3 | 0.3&-0.2 | -5
CNC[C@H](Cc1ccccc1)NC[C@@H](Cc1cccc2ccccc12)NCCc1ccc(C)cc1 | -7 | -81 | 1 | -17 | 1.0 | 17
CS(=O)(=O)N1CCN(c2ccccc2NC(=O)Cc2ccccc2)CC1 | -15 | 7 | 9 | -5 | -0.7 | -1
N#C/C(=C\c1ccc(OCc2ccccc2)cc1)C(=O)Nc1nc2c(s1)CCN(Cc1ccccc1)C2 | 56 | -3 | -9 | -11 | -0.2 | 4
O=C(CSC1=Nc2ccccc2C2=NC(c3ccccc3)C(=O)N12)NC1CCCCC1 (stereo not drawn) | 16 | -4 | 4 | -8 | 1.5 | -2
O=C(CN1C(=O)CCSc2ccccc21)Nc1ccccc1 | 9 | -4 | 3 | 6 | -0.3 | -1
N#Cc1ccc(C(=O)OCC(=O)N2CCCCCC2)cc1 | -5 | 3 | 4 | -22 | 0.6 | -3
CCOC(=O)[C@]12CCC=C1N(Cc1cccc3ccccc13)C(=O)[C@H](CC(=O)NCc1ccc(C)o1)C2 | / | / | -19 | 0 | -0.2 | /
N#Cc1nc(COc2ccc(Cl)cc2)oc1N1CCN(Cc2ccccc2)CC1 | 0 | 0 | ? | ? | 1.5 | -18
COc1ccc(NC(=O)CNC(=O)c2ccco2)cc1 | 24 | -22 | 0 | -17 | 0.4 | -4
CC(=O)Nc1cccc(C(=O)OCC(=O)NCc2cc(C)c(O)c(C)c2)c1 | 15 | 10 | 2 | 2 | -0.3 | ?
O=C(COC(=O)COc1cccc(F)c1)NCC1CCCCC1 | -6 | -6 | 3 | 0 | -0.4 | /
CC(=O)c1cccc(NC(=O)CC2SC(N3CCCCC3)=NC2=O)c1 (stereo not drawn) | 22 | -11 | 9 | 0 | 0.2 | -1
COc1cccc(CN2CC(C(=O)NC3CCC(O)CC3)CCC2=O)c1 (stereo not drawn) | 7 | -14 | 6 | 6 | 0.2 | -3
COC(=O)[C@@]12CCCCN1[C@H](c1ccc(-c3ccc(C(C)=O)cc3)cc1)[C@@H]1C(=O)N(C)C(=O)[C@@H]12 | 9 | -30 | 4 | 0 | -0.6 | -17
COc1cccc(C(c2sc3nc(C)nn3c2O)N2CCC3(CC2)OCCO3)c1 (stereo not drawn) | -20 | -9 | 7 | 4 | 0.9 | -6
CCOc1ccc(NC(=O)CSc2nnc(CNC(=O)c3cccs3)o2)cc1 | -9 | -5 | 0 | -4 | -0.7 | -7
CCN(C)C1CN(Cc2cn(Cc3ccc(C)cc3)nn2)S(=O)(=O)C1 (stereo not drawn) | / | / | 6 | 6 | -0.4 | /
O=S(=O)(c1ccc2c(c1)nc1n2CCC1)N1CCOCC1 | 16 | -6 | -1 | 6 | -0.4 | 10
Cn1c(=O)c2c(ncn2Cc2ccccc2)n(C)c1=O | -5 | 1 | -3 | 0 | -0.7 | -8
Nc1nc(SCC(=O)N2CCOCC2)[nH]c(=O)c1-c1ccccc1 | 3 | -1 | -6 | -7 | -0.6 | -6
Cc1sc2ncnc(N[C@@H](Cc3c[nH]c4ccccc34)C(=O)O)c2c1C | -2 | -14 | -4 | -3 | 0.1 | 3
CCCS(=O)(=O)N1CCC(C(=O)NCCc2ccc(C)cc2)CC1 | -9 | 17 | -1 | 3 | -2.1 | -2
O=C(Cc1ccc(Br)cc1)NCc1ccccc1 | -4 | -25 | -11 | -1 | -1.0 | -27
Cc1ccccc1NC(=O)NCCCN1CCN(c2ccccc2)CC1 | 15 | -21 | -3 | -18 | 1.3 | 8
COc1ccc(NC(=O)Cn2c(=O)n(CC(=O)NCc3ccco3)c(=O)c3ccccc32)cc1OC | -13 | 2 | -4 | 1 | -0.5 | 12
COc1ccc(OCC(=O)Nc2nonc2NC(=O)COc2ccc(OC)cc2)cc1 | -7 | 1 | -20 | -15 | 0.6 | 4
C=CCNC(=O)CC1Nc2c3ccccc3nc(=S)n2C1=O (stereo not drawn) | -1 | -3 | 0 | 0 | -0.1 | 15
CCN(CC)C(=O)Cn1cc(C(=O)C(=O)NCc2ccco2)c2ccccc21 | 16 | -4 | 7 | -10 | -0.2 | -5
COC(=O)C(Cc1ccccc1)NC(=O)c1cccc(S(=O)(=O)N(C)C)c1 (stereo not drawn) | -2 | -21 | 10 | -7 | 0.3 | 4
CC(C)n1nc(C(=O)Nc2ccc(-n3cnnn3)cc2)c2ccccc2c1=O | 10 | -5 | 2 | 1 | -0.2 | /
Cc1cc(C)cc(NS(=O)(=O)Cc2ccccc2)c1 | 47 | -7 | 4 | 2 | 1.4 | 20
CCOC(=O)C1(Cc2ccccc2C)CCCN(C(=O)c2ccnn2C)C1 (stereo not drawn) | -7 | -2 | 0 | -2 | -0.7 | 10
COc1ccc(-c2cc(C(=O)N3CCN(c4ccccc4F)CC3)c3ccccc3n2)c(OC)c1 | -14 | -19 | 0 | 8 | -0.3 | 2
COC(=O)c1sc(=S)sc1C(=O)OC | 7 | -19 | -89* | 13 | 0.3 | -2
Cc1occc1-c1nnc(SCC(=O)NCC2CCCO2)n1C (stereo not drawn) | 10 | -9 | 1 | 5 | 3.5 | 5
CCCC(C)c1nnc(NC(=O)CS(=O)(=O)Cc2ccccc2)s1 (stereo not drawn) | -7 | 9 | 5 | -5 | -0.1 | -2
Cc1ccc(C(=O)Nc2nnc(-c3ccc(C(C)(C)C)cc3)s2)cc1 | 5 | 9 | 3 | 4 | 2.7 | 9
CCN(c1cccc(C)c1)S(=O)(=O)c1cc2c3c(c1)CCC(=O)N3CCC2 | 13 | -67 | 3 | -6 | 9.6 | 28

Screens from PubChem.
